GAA inhib: inhibitors of human lysosomal alpha-glucosidase; P10253; purified human GAA, 4-MU-alpha-glucoside fluorescence; Potency, µM (top dose mostly 76.9 µM), for the others: top-dose activity change, negative = inhibition, actives largely listed as inhibitors; 200,000 tested, 0.005% active;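 also: plate controls were uninhibited enzyme wells for no effect and no-enzyme background for full effect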
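Enzyme (4 nM final) mixed with compound (up to 77 uM), then 4-MU-alpha-D-pyranoside (400 uM final) added; 20 min at room temperature, pH 5.0. Reaction stopped at pH 10, fluorescence read, AC50 derived by Hill fit.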
aGlu spleen mod: inhibits or activates alpha-glucosidase in human spleen homogenate | 240,000 tested, 0.006% active | Potency, µM (doses to about 79.9 µM), without a hit: at the highest dose activity change, negative = inhibition, usual class: inhibitors | human spleen homogenate, 4-MU-alpha-glucoside fluorescence | P10253;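 also: 0% = enzyme with vehicle and -100% = no enzyme basal signal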
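Human spleen homogenate (1 ug) incubated with compounds and 1 mM 4-methylumbelliferyl-alpha-D-glucopyranoside in pH 5.0 citrate/phosphate buffer, 37 C, 40 min. Stopped at pH 10; 4-MU fluorescence (Ex 365/Em 440 nm); AC50 by Hill fit.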
GAA glycogen mod: alters human alpha-glucosidase cleavage of glycogen; Potency, µM (titrated, usually from 76.4 µM), inactives show at the top dose activity change, negative = inhibition, actives largely listed as inhibitors; AID 2100; recombinant GAA, glycogen substrate, Amplex Red glucose oxidase fluorescence; 300,000 tested, 0.38% active;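 also: 0% = full enzyme reaction and -100% = no-enzyme basal signal; the screen sought inhibitors and activators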
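Recombinant enzyme (4 nM final) with compounds titrated up to 77 uM and bovine liver glycogen (30 ug) in citrate pH 5.0, 0.01% Tween-20, 37 C 40 min. Released glucose detected by Amplex Red/glucose oxidase (Ex 573/Em 610); AC50 from Hill fits.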
IMPase Li cell: cell-permeable IMPase inhibitors with lithium potentiation; AID 1457; Potency, µM (top dose mostly 59.4 µM), without a hit: at the top dose activity, negative = IMPase inhibition, actives largely listed as inhibitors; CHO-M1 cells, IP1 TR-FRET (IP-One), carbachol + lithium; 210,000 tested, 0.35% active;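 also: IP1 builds up when IMPase is blocked and the TR-FRET signal falls; plate controls were basal vehicle for no effect and high inhibitor control for full effect; nearly all actives have a fitted effect of over 50% in size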
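CHO cells stably expressing M1 receptor (2000/well, cultured 16–30 h) treated 30 min at 37C with compound plus low lithium. Cytosolic IP1 by TR-FRET (665/620 ratio and 620 channel) after 10 min lysis; AC50 by Hill fit.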
An asterisk follows results filed as active; . = no result given; & = joins results of further samples; [ ] = another dose, or the depositor's remark. Calls follow the shape of the dose curve; as a rule, active = well fitted curve in the direction sought with a large enough effect; inconclusive = small, poorly fitted or top-dose-only effect, or another doubt; inactive = no such curve, though single readings can be large; an effect the other way counts as inactive or inconclusive. Potency is read from the fitted curve at half-maximal effect. A portion of the library; the hit share may differ from the screen's.

(1) CC(=O)Nc1c(I)c(NC(C)=O)c(I)c(C(=O)O)c1I
(2) O=C1CN(/N=C/c2ccc(-c3ccc([N+](=O)[O-])cc3)o2)C(=O)N1
(3) C[C@@H]1C[C@@H]2[C@H]3CCC4=CC(=O)C=C[C@]4(C)[C@]3(F)[C@@H](O)C[C@@]2(C)[C@@]1(O)C(=O)CO
(4) N=C(N)c1ccc(/C=C/c2ccc(C(=N)N)cc2O)cc1
(5) CC1=C(CC(=O)O)c2cc(F)ccc2/C1=C\c1ccc(S(C)=O)cc1 (stereo not drawn)
(6) CC[C@H]1CN2CCc3cc(OC)c(OC)cc3[C@H]2C[C@@H]1C[C@@H]1NCCc2cc(OC)c(OC)cc21
(7) NCCc1nc(-c2ccccc2)cs1
(8) CC(=O)N1CCN(c2ccc(OC[C@@H]3CO[C@@](Cn4ccnc4)(c4ccc(Cl)cc4Cl)O3)cc2)CC1

assay / compound,1,2,3,4,5,6,7,8
GAA inhib,-6.1%&-0.6%[15.4 µM],.,.,-5.4%,.,.,-6.3%,.
GAA glycogen mod,2.2%&1.3%,.,.,2.1%,-1.3%,.,8.0%,.
aGlu spleen mod,2.4%&2.1%,-17.2%&-0.3%,5.3%,0.3%,-25.0%,-0.4%,.,5.1%[29.1 µM]
IMPase Li cell,7.0%&3.9%,-3.5%&-18.0%,6.3%,.,16.1%&7.5%&9.0%&0.9%,-0.5%,21.6%,14.3%

Arranged by the number under IMPase Li cell (rising): 3 of the compounds above.
(6) CC[C@H]1CN2CCc3cc(OC)c(OC)cc3[C@H]2C[C@@H]1C[C@@H]1NCCc2cc(OC)c(OC)cc21
(8) CC(=O)N1CCN(c2ccc(OC[C@@H]3CO[C@@](Cn4ccnc4)(c4ccc(Cl)cc4Cl)O3)cc2)CC1
(7) NCCc1nc(-c2ccccc2)cs1

assay / compound,6,8,7
GAA inhib,.,.,-6.3%
GAA glycogen mod,.,.,8.0%
aGlu spleen mod,-0.4%,5.1%[29.1 µM],.
IMPase Li cell,-0.5%,14.3%,21.6%

Limited to GAA glycogen mod, aGlu spleen mod and IMPase Li cell, for some of the entries so far:
| entry | Structure | GAA glycogen mod | aGlu spleen mod | IMPase Li cell |
| --- | --- | --- | --- | --- |
| 5 | CC1=C(CC(=O)O)c2cc(F)ccc2/C1=C\c1ccc(S(C)=O)cc1 (stereo not drawn) | -1.3% | -25.0% | 16.1%&7.5%&9.0%&0.9% |
| 6 | CC[C@H]1CN2CCc3cc(OC)c(OC)cc3[C@H]2C[C@@H]1C[C@@H]1NCCc2cc(OC)c(OC)cc21 | . | -0.4% | -0.5% |

Bioassay records deposited in PubChem BioAssay by National Center for Advancing Translational Sciences (NCATS).
